VACV mCherry inh = vaccinia inhibition (mCherry reporter). Vaccinia virus mCherry reporter infection, fluorescence; about a quarter of the inactives have no number. Potency, µM (top dose mostly 36.5 µM), inactives show at the highest dose activity change, negative = inhibition, hits mostly inhibitors. 0.63% of 310,000 active. AID 720579; active = well fitted inhibition curve with a large enough effect; inconclusive = small, poorly fitted or top-dose-only effect; inactive = no such curve, though single readings can be large or run the other way; tested in A549 cells; note: nearly all actives have a fitted effect of over 35% in size; inactives centre near -10
VACV Venus inh = inhibitors of vaccinia virus (Venus reporter); Potency, µM (top dose mostly 36.5 µM), for the others: at the highest dose activity change, negative = inhibition, hits mostly inhibitors; 0.46% of 330,000 active; AID 720580; Vaccinia virus Venus reporter expression, fluorescence; active means well fitted inhibition curve with a large enough effect; inconclusive means small, poorly fitted or top-dose-only effect; inactive means no such curve, though single readings can be large or run the other way; tested in A549 cells; note: nearly all actives have a fitted effect of over 30% in size; inactives centre near -10
Starred values were filed as active, the others as inactive; & = joins results of further samples. % is set by controls: 0 for no effect and ±100 for the full control effect; potency is the fitted concentration of half-maximal effect.

`CCOc1ccc(C(=S)NC2CCCCC2)cc1OCC` gave VACV mCherry inh inactive and VACV Venus inh -14%.
`COc1ccc(S(=O)(=O)NCC2CCCN(Cc3ccc(OC)cc3F)C2)cc1` (stereo not given) gave VACV mCherry inh inactive and VACV Venus inh -19%.
Screening CCC(C)NC(=S)Nc1ccc(C(=O)OC)cc1 (stereo not given) returned VACV mCherry inh -4% and VACV Venus inh -5%.
CC1=C(C(=O)OCc2ccccc2)C(c2ccc(Cl)cc2)NC(=O)N1CCCC(=O)O (stereo not given) was read as VACV mCherry inh -1% and VACV Venus inh -8%.
CN(C)S(=O)(=O)N1CCN(c2ccc([N+](=O)[O-])c(NC3CC3)c2)CC1 was read as VACV mCherry inh -4% and VACV Venus inh -19%.
`Cc1nc(CNC(=O)c2cc(COc3ccc(F)cc3Cl)on2)cs1` gave VACV mCherry inh -12% and VACV Venus inh -13%.
For CN(C)c1ccc(/C=N/NC(=O)c2ccc3nc[nH]c3c2)cc1 the results were VACV mCherry inh inactive and VACV Venus inh -6%.
Cc1nc2ccc(NC(=O)N(C)c3ccccc3)cc2s1 was read as VACV mCherry inh -23% and VACV Venus inh -7%.
Screening CCc1nc2ccc(C(=O)NCc3ccc4c(c3)OCO4)cn2c1N(C)C(=O)Cc1ccccc1 returned VACV mCherry inh inactive and VACV Venus inh -1%.
`COc1ccc(F)cc1COc1nc(C)nc2ccccc12` gave VACV mCherry inh 29% and VACV Venus inh -24%.
For COc1ccc(/C=N/NC(=O)c2ccn[nH]2)cc1COc1ccc(F)cc1 the results were VACV mCherry inh -5% and VACV Venus inh -9%.
CCC(C)NC(=O)c1ccccc1NC(=O)COc1ccc(OC)cc1 (stereo not given) was read as VACV mCherry inh inconclusive and VACV Venus inh -23%.
`CC(C)OC(=O)CSc1nnc(-c2ccc(O)cc2)n1Cc1ccccc1` gave VACV mCherry inh -11% and VACV Venus inh -3%.
CC(=O)c1cc(NC(=O)c2ccc(C)cc2)c(=O)oc1/C=C/N(C)C was read as VACV Venus inh -12%.
`Cc1ccc(C(=O)N2CCC3(CC2)Oc2ccc(F)cc2C(=O)C32CC(c3cccnc3)=NO2)s1` (stereo not given) gave VACV mCherry inh inactive and VACV Venus inh -15%.
Screening CCCN(CCC)C(=O)Cn1c(=O)n(CCCCCC(=O)Nc2ccccc2)c(=O)c2sccc21 returned VACV mCherry inh -15%&-6% and VACV Venus inh -4%&-1%.
For O=C(Nc1ccccc1)N1CCN(c2ccccc2)CC1 the results were VACV mCherry inh -13% and VACV Venus inh -13%.
`CCCNC(=O)C1(C)CCCN(Cc2ccc(-n3ccnc3)cc2)C1` (stereo not given) gave VACV mCherry inh inactive and VACV Venus inh -3%.
COc1ccccc1CC(=O)NNC(=O)c1cccs1 was read as VACV mCherry inh -5% and VACV Venus inh -11%.
For Cc1ccc2nc(-c3ccc(NC(=O)COc4ccccc4C(C)(C)C)cc3)sc2c1 the results were VACV mCherry inh -13% and VACV Venus inh -7%.
For COc1ccc(CCNC(=O)CC(=O)N/N=C\c2ccc(OCC(N)=O)cc2)cc1OC the results were VACV mCherry inh inactive and VACV Venus inh 1%.
`COc1ccc(NC(=O)C2COc3ccccc3O2)cc1S(=O)(=O)N1CCOCC1` (stereo not given) gave VACV mCherry inh inactive and VACV Venus inh -5%.
`Cc1ccc(-n2nc(C)c(NC(=O)CCl)c2C)cc1C` gave VACV mCherry inh inconclusive and VACV Venus inh inconclusive.
Screening O=C1CC(c2ccco2)Cc2nc(NCC3CCCO3)ncc21 (stereo not given) returned VACV Venus inh -20%.
For COc1cc(CN2CCN(S(=O)(=O)c3ccc(NC(C)=O)cc3)CC2)cc(OC)c1OC the results were VACV mCherry inh -12% and VACV Venus inh -6%.
Screening COc1ccc2[nH]c(=O)c(CN(Cc3cccnc3)S(=O)(=O)c3ccccc3F)cc2c1 returned VACV mCherry inh inactive and VACV Venus inh -12%.
Screening CCCCNC(=O)C1(C)CCCCN1C(=O)c1cccc(OC(F)(F)F)c1 (stereo not given) returned VACV mCherry inh inconclusive and VACV Venus inh -29%.
COc1cccc(CNC(=O)C23CN(Cc4ccccc4)CC2C(c2ccc([N+](=O)[O-])cc2)=NO3)c1 (stereo not given) was read as VACV mCherry inh -11% and VACV Venus inh -6%.
Screening O=C(NCCCn1ccnc1)c1ccccc1F returned VACV mCherry inh -12% and VACV Venus inh -12%.
Screening C=CCOc1ccc(C2N3CC4(C)CN2CC(CCC)(C3)C4=O)cc1 (stereo not given) returned VACV Venus inh -24%.
`COc1ccc(OC)c(C2NC(=O)NC(C)=C2C(=O)Nc2ccc(F)cc2)c1` (stereo not given) gave VACV mCherry inh -17% and VACV Venus inh -11%.
`CC(=O)OCC(=O)[C@@]1(O)CCC2C3CC[C@H]4CC(O)CC[C@@]4(C)C3C(=O)C[C@]21C` (stereo not given in full) gave VACV mCherry inh inactive and VACV Venus inh 5%.
Screening Cc1nn(C)cc1C1C(C#N)=C(N)N(c2cccnc2)C2=C1C(=O)CCC2 (stereo not given) returned VACV mCherry inh inactive and VACV Venus inh -1%.
For Clc1cccc(CNCCc2ccc3c(c2)OCO3)c1 the results were VACV mCherry inh -4% and VACV Venus inh -7%.
Cc1ccccc1C(=O)N1CCc2c(cnc(C)c2CNC(=O)c2ccc3c(c2)OCO3)C1 was read as VACV mCherry inh 1% and VACV Venus inh 0%.
For COc1ccccc1S(=O)(=O)N1CCn2cccc2C1C (stereo not given) the results were VACV mCherry inh -6% and VACV Venus inh -4%.
Screening COc1cc(C(=O)NCc2ccc3c(c2)CCN3C(=O)c2ccc(Cl)cc2)cc(OC)c1OC returned VACV mCherry inh inconclusive and VACV Venus inh -15%.
`CC(C)N(CCNC(=O)c1ccc(CS(=O)(=O)c2c(Cl)cccc2Cl)o1)Cc1ccccc1` gave VACV mCherry inh -12% and VACV Venus inh -23%.
For CN(CC(=O)c1c(N)n(C)c(=O)n(C)c1=O)c1ccccc1 the results were VACV mCherry inh -4% and VACV Venus inh -13%.
`Cc1c(C(=O)O)sc2nc(CSc3nnc(-c4ccc(F)cc4)n3C)[nH]c(=O)c12` gave VACV mCherry inh -11% and VACV Venus inh 5%.
Screening O=C(c1c(F)cccc1F)N1CCC(n2nnc3cc(C(F)(F)F)ccc32)CC1 returned VACV mCherry inh -12% and VACV Venus inh -5%.
For CC(C)c1nnc(NC(=O)C2CCCO2)s1 (stereo not given) the results were VACV mCherry inh inactive and VACV Venus inh -5%.
Screening COc1ccc(S(=O)(=O)Nc2cc3c(C(C)=O)c(C)oc3c3ccccc23)cc1 returned VACV mCherry inh -25% and VACV Venus inh inconclusive.
Screening CC1CCCC(NC(=O)COC(=O)COc2ccccc2Cl)C1C (stereo not given) returned VACV mCherry inh -10% and VACV Venus inh -3%.
Screening CCN1CCN(CC(=O)Nc2ccc(OC(F)(F)F)cc2)CC1 returned VACV mCherry inh inactive and VACV Venus inh -15%.
Screening Cc1noc(C)c1NC(=O)N(C)C[C@@H]1Oc2ccc(NC(=O)C3CCCCC3)cc2C(=O)N([C@@H](C)CO)C[C@H]1C returned VACV mCherry inh inactive and VACV Venus inh -6%.
CCNS(=O)(=O)c1ccc(NC(=O)CSc2nc(-c3ccco3)cc(C(F)(F)F)n2)cc1 was read as VACV mCherry inh -12% and VACV Venus inh inconclusive.
For CCn1c(SCC(=O)c2ccc3c(c2)OCCO3)nnc1C(C)C the results were VACV mCherry inh -2% and VACV Venus inh -14%.
`CCN(Cc1ccccc1)c1ccc(/C=N/N=C(N)N)cc1` gave VACV mCherry inh inconclusive and VACV Venus inh 11µM*.
For CC(=O)Nc1ccc(C)cc1-c1nc2ccccc2n(CC(=O)c2ccc(C)c(C)c2)c1=O the results were VACV mCherry inh -18% and VACV Venus inh -14%.
For COc1ccc(OC)c2[nH]c(=O)c(CCNS(=O)(=O)c3ccccc3)cc12 the results were VACV mCherry inh -25% and VACV Venus inh -10%.
Screening CC(=O)c1ccc(NC(=O)c2cccs2)cc1 returned VACV mCherry inh -22% and VACV Venus inh -16%.
`CCN1CCN(C(=O)c2cc3cc(Cl)ccc3[nH]2)CC1` gave VACV mCherry inh -5% and VACV Venus inh -15%.
Screening O=C(Nc1ccccn1)c1ccc2ccccc2c1O returned VACV mCherry inh -12% and VACV Venus inh -9%.
`CCc1ccc(N(CC(=O)Nc2ccccc2C(=O)N2CCOCC2)S(C)(=O)=O)cc1` gave VACV mCherry inh inactive and VACV Venus inh -13%.
For COC(=O)c1sc(OC)cc1OCc1ccc(C)cc1 the results were VACV Venus inh inconclusive.
For COc1ccc(-c2cc(C(F)(F)F)n3nc(C(=O)Nc4ccccc4SC)cc3n2)cc1OC the results were VACV mCherry inh -3% and VACV Venus inh -3%.
`Cc1cc(C)nc(N2CCCC(C(=O)NCc3ccccc3)C2)n1` (stereo not given) gave VACV mCherry inh -18% and VACV Venus inh -13%.
For O=C(CCc1nc2sc3c(c2c(=O)[nH]1)CCCC3)NCCc1ccc(F)cc1 the results were VACV mCherry inh -12% and VACV Venus inh -15%.
`O=C(O)CC1OCC=C2CN3CCC45c6ccccc6NC4C1C2CC35` (stereo not given) gave VACV mCherry inh inactive and VACV Venus inh -15%.
COc1ccc(C(=S)NCS(=O)(=O)c2ccc(C)cc2)cc1 was read as VACV mCherry inh -17% and VACV Venus inh -16%.
Screening CCCNC(=S)NCc1ccc(Cl)cc1 returned VACV mCherry inh inactive and VACV Venus inh -4%.
For CN1CCCN(S(=O)(=O)c2ccc(Cl)c(Cl)c2)CC1 the results were VACV mCherry inh inactive and VACV Venus inh -6%.
S=c1[nH]nc(-c2ccc3ccccc3n2)n1-c1ccc2ncccc2c1 was read as VACV mCherry inh -8% and VACV Venus inh 2%.
CCN(CCCNC(=O)CN1C(=O)COc2ccc(S(=O)(=O)N3CCC(C)CC3)cc21)Cc1ccccc1 was read as VACV mCherry inh -18% and VACV Venus inh inconclusive.
`Cc1ccc(NC(=O)c2cc(-c3cccs3)nc3ccccc23)c(C)c1` gave VACV mCherry inh -11% and VACV Venus inh -2%.
`CCOC(=O)C1(CC2CC2)CCN(S(=O)(=O)C[C@]23CC[C@H](CC2=O)C3(C)C)CC1` gave VACV mCherry inh -28% and VACV Venus inh -14%.
`CNC(=O)OC1CC2CC1[C@H]1CCCCN1C2=O` (stereo not given in full) gave VACV mCherry inh 9% and VACV Venus inh 2%.
Screening Fc1ccc(CSc2nnc(-c3ccncc3)o2)cc1 returned VACV mCherry inh -8% and VACV Venus inh -11%.
Screening CN(C)N(C)C(=O)C(O)(c1ccccc1)c1ccccc1 returned VACV mCherry inh inactive and VACV Venus inh -1%.

Grouped by structure, the entries above containing a thiophene ring, fused or not
`Cc1ccc(C(=O)N2CCC3(CC2)Oc2ccc(F)cc2C(=O)C32CC(c3cccnc3)=NO2)s1` (stereo not given) gave VACV mCherry inh inactive and VACV Venus inh -15%.
Screening CCCN(CCC)C(=O)Cn1c(=O)n(CCCCCC(=O)Nc2ccccc2)c(=O)c2sccc21 returned VACV mCherry inh -15%&-6% and VACV Venus inh -4%&-1%.
COc1ccccc1CC(=O)NNC(=O)c1cccs1 was read as VACV mCherry inh -5% and VACV Venus inh -11%.
`Cc1c(C(=O)O)sc2nc(CSc3nnc(-c4ccc(F)cc4)n3C)[nH]c(=O)c12` gave VACV mCherry inh -11% and VACV Venus inh 5%.
Screening CC(=O)c1ccc(NC(=O)c2cccs2)cc1 returned VACV mCherry inh -22% and VACV Venus inh -16%.
For COC(=O)c1sc(OC)cc1OCc1ccc(C)cc1 the results were VACV Venus inh inconclusive.
For O=C(CCc1nc2sc3c(c2c(=O)[nH]1)CCCC3)NCCc1ccc(F)cc1 the results were VACV mCherry inh -12% and VACV Venus inh -15%.
`Cc1ccc(NC(=O)c2cc(-c3cccs3)nc3ccccc23)c(C)c1` gave VACV mCherry inh -11% and VACV Venus inh -2%.

The main list resumes with the 4 entries that preceded the break.
`CCOC(=O)C1(CC2CC2)CCN(S(=O)(=O)C[C@]23CC[C@H](CC2=O)C3(C)C)CC1` gave VACV mCherry inh -28% and VACV Venus inh -14%.
`CNC(=O)OC1CC2CC1[C@H]1CCCCN1C2=O` (stereo not given in full) gave VACV mCherry inh 9% and VACV Venus inh 2%.
Screening Fc1ccc(CSc2nnc(-c3ccncc3)o2)cc1 returned VACV mCherry inh -8% and VACV Venus inh -11%.
Screening CN(C)N(C)C(=O)C(O)(c1ccccc1)c1ccccc1 returned VACV mCherry inh inactive and VACV Venus inh -1%.
`CN(CC(=O)Nc1ccc(F)cc1)C(=O)CCc1ccccc1` gave VACV mCherry inh inactive and VACV Venus inh 0%.
CCCCN(C(C)=O)c1c(CC)nc2ccc(C(=O)NCCOc3ccc(OC)cc3)cn12 was read as VACV mCherry inh inactive and VACV Venus inh 0%.
Screening Cc1ccc(S(=O)(=O)N2CCN(C(=O)c3sccc3C)CC2)cc1 returned VACV mCherry inh -1% and VACV Venus inh -14%.
CC1(C)CC2(CCO1)NCCN1C(=O)CSC12 (stereo not given) was read as VACV Venus inh -18%.
`COc1ccc(N2CCN(C(CNS(=O)(=O)c3ccc(C)cc3)c3ccccc3)CC2)cc1` (stereo not given) gave VACV mCherry inh inconclusive and VACV Venus inh -29%.
COc1ccc(-c2nc(N)n(C(=O)c3cccs3)n2)cc1 was read as VACV mCherry inh -8% and VACV Venus inh 2%.

Screening results (PubChem BioAssay)
